Bioassay records as filed in PubChem.
KCNQ2 pot: KCNQ2 (rat) channel potentiation; O88943; CHO-K1 KCNQ2, FluxOR thallium flux fluorescence; stronger effect = higher value; actives 0.54% (n = 310,000); B-score at 10 µM; AID 2239;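 active = fluorescence ratio B-score at least 3 SD of library B-scores, with initial fluorescence B-score within 3 SD, cut at about 5.3 in these data; same plate scores as AID 2156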;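 also: B-score of peak minus minimum over baseline fluorescence ratio after K+ and Tl+ stimulus; positive B-score means potentiation of KCNQ2 with more thallium influx and brighter signal; only the inactives scoring about 0 or higher are listed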
Target sequence (O88943 whole entry, looked up): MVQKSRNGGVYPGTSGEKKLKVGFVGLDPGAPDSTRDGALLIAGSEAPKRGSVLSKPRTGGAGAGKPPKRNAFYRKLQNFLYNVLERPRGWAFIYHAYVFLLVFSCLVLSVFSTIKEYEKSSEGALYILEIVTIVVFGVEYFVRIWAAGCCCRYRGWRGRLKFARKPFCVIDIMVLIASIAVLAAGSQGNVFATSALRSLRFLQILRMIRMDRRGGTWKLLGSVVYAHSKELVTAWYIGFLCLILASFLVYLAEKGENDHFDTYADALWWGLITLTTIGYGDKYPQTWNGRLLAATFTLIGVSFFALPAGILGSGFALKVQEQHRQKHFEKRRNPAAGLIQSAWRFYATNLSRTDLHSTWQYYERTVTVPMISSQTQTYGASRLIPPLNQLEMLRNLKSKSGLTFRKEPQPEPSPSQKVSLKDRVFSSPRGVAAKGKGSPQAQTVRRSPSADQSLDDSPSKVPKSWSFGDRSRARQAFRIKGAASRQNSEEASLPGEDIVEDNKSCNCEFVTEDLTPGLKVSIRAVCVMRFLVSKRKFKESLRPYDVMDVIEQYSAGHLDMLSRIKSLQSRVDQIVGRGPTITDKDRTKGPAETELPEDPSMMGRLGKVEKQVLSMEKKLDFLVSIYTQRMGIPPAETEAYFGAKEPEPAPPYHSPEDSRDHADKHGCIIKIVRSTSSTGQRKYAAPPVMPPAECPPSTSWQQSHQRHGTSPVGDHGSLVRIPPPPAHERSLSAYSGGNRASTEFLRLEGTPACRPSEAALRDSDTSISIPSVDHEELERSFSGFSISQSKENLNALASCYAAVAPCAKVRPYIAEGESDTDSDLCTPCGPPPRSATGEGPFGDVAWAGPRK
KCNQ2 pot baseline: further read-out of KCNQ2 pot, marked with its call; B-score; compound at 10 µM; measured here: initial fluorescence intensity artifact check;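 brightness before thallium and not channel activity; 0 = typical well and far values either way flag optical interference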
The depositor's hits bear a star.

SMILES	KCNQ2 pot	KCNQ2 pot baseline
Clc1ccc(Oc2nc3ccccc3n3cccc23)cc1	1.64	-1.25
CCn1c(NC(C)=O)nc2ccccc21	0.92	-1.11
COc1ccccc1NC(=O)CS(=O)(=O)c1cccc2nsnc12	0.55	-2.1
Cc1cc(C)n2nc(C(=O)NCc3cccc(C(F)(F)F)c3)nc2n1	1.15	0.21
Cc1noc(COc2ccccc2OCC(N)=O)n1	0.01	1.42
COC(=O)c1sccc1NC(=O)CNC(=O)c1ccccc1	2.28	-1.4
O=C(/C=C/c1ccc(Cl)cc1)Nc1ccccc1N1CCOCC1	0.69	-2.23
Cc1ccc(/C=C/c2nc3ccccc3c(=O)[nH]2)cc1	1.04	0.44
COc1ccc(/C=C(\C#N)C(=O)OCC(=O)NC(C)c2ccccc2)cc1 (stereo not drawn)	0.67	-1.23
Cc1cc(NC(=O)Cn2nnc(-c3ccccc3N)n2)no1	0.8	0.05
N#C/C(=C(/O)c1ccco1)c1nc2ccccc2[nH]1	1.22	-2.44
Cn1c(C(=O)NCc2ccccn2)cc2c(=O)n3ccccc3nc21	0.79	-0.21
C=CCn1c(-c2csc(-c3ccccc3)n2)n[nH]c1=S	0.16	0.83
CCOP(=O)(OCC)C(NC(=O)/C=C/c1ccc(OC)cc1)c1ccccc1 (stereo not drawn)	0.98	0.13
Cc1cc(Nc2ccccc2)nc(N2CCOCC2)n1	2.43	0.95
CC(C)COc1ccc(/C(=N/O)c2ccccc2)cc1	2.55	-1.02
CC(=O)Nc1ccc(S(=O)(=O)N2CCC(C(=O)Nc3nccs3)CC2)cc1	0.43	-0.56
O=C(COC(=O)c1cc(-c2ccccn2)nc2ccccc12)Nc1ncc(C(F)(F)F)cc1Cl	0.16	-0.02
CCN(C(=O)COC(=O)c1cccc(S(=O)(=O)N(CC)CC)c1)C1CCS(=O)(=O)C1 (stereo not drawn)	0.13	-0.73
COc1ccc(CN2CC[C@H]3C=CC[C@@H](C(=O)N4CCOCC4)[C@H]3C2=O)cc1OC	0.9	3.39
COc1ccc2nc(CNC(=O)C3CCC(=O)N(CCc4ccccc4)C3)[nH]c2c1 (stereo not drawn)	0.23	1.62
Cc1oc(-c2ccc(Cl)cc2)nc1CS(=O)CC(=O)NC1CC1 (stereo not drawn)	0.52	-0.12
O=C(Nc1ccc(F)cc1)N1CCCN(c2nccc(C(F)(F)F)n2)CC1	0.42	-0.08
Cc1ccc(S(=O)(=O)N2Cc3ccccc3CC2C(=O)Nn2cnnc2)cc1 (stereo not drawn)	1.09	-0.04
CC(C)(C)NC(=O)C(=O)NNC(=O)c1cccc(F)c1	2.77	-0.24
COc1ccc(Nc2nc(-c3ccccc3F)nc3ccccc23)cc1OC	0.14	0.61
N#CCCN(CCC#N)S(=O)(=O)c1ccc(C(=O)Nc2nnc(C3=COCCO3)o2)cc1	1.29	-0.32
Cc1cccc(Nc2nc(N)nc(CN3CCC(C(N)=O)CC3)n2)c1C	0.56	0.06
COC(=O)c1oc2ccccc2c1NC(=O)CN1CCCC1	0.33	-1.44
COc1ccc(Nc2cc(C(=O)NCCCN3CCN(C)CC3)c3ccccc3n2)cc1	0.66	-1.58
COc1ccc2cc3cc(C(=O)Nc4ccccc4N4CCN(C)CC4)oc3nc2c1	0.68	-1.3
COC(=O)c1cc(NS(=O)(=O)c2ccc(NCc3cccnc3)c(N)c2)cc(C(=O)OC)c1	0.35	0.3
C=C(C)CNC(=S)NNC(=O)c1ccco1	0.5	0.55
CN(Cc1cccs1)C(=O)CNC(=O)c1ccco1	0.66	1.36
CC1(C)CC(=O)C=C(Nc2cccc(Cl)c2Cl)C1	0.8	0.1
COc1ccc(OCc2cc(C(=O)NCc3nc(C)cs3)no2)c(Cl)c1	1.5	2.32

2 entries from above, comma-delimited:
canonical_smiles,KCNQ2 pot,KCNQ2 pot baseline
CN(Cc1cccs1)C(=O)CNC(=O)c1ccco1,0.66,1.36
COC(=O)c1oc2ccccc2c1NC(=O)CN1CCCC1,0.33,-1.44

Following part:
SMILES	KCNQ2 pot	KCNQ2 pot baseline
CCOc1ccc(Nc2n[nH]c(=S)s2)cc1	0.36	-0.72
Nc1nc(Nc2ccccc2)nc(N2CCOCC2)c1[N+](=O)[O-]	1.41	-0.02
O=C(NC1CC2CCC1C2)c1ccc(CN2CCOCC2)cc1 (stereo not drawn)	0.07	0.68
COc1cccc(C2C(C#N)=C(N)N(N(C)C)C3=C2C(=O)CC(C)(C)C3)c1OC (stereo not drawn)	1.55	-0.06
CCOC(=O)c1cc(NC(=O)NCc2ccco2)c(C)nc1C	1.71	0.03
CCCCn1c(=O)c(CCC(=O)OCC(=O)NCc2ccc(OC)c(OC)c2)nc2ccccc21	1.51	-0.02
COCCN(C(=O)CSc1n[nH]c(-c2ccccc2)n1)c1c(N)n(Cc2ccccc2)c(=O)[nH]c1=O	5.17	-0.04
Cn1c(SCC(=O)NCCc2ccccc2)ncc(C(=O)Nc2ccc(F)cc2)c1=O	0.39	0.33
Cc1nc2nc(-c3ccc(Cl)cc3)cn2nc1C	0.32	-2.09
CCOc1ccc(-c2nnn(CC#N)n2)cc1OC	0.34	-0.21
O=S(=O)(Cc1ccccc1)NCc1ccccn1	1.62	1.43
CSc1cccc(CN2CCC(n3nccc3NC(=O)C3CC3)CC2)c1	0.99	-2.04
Cc1n[nH]c(C)c1NC(=O)c1cc([N+](=O)[O-])ccc1Cl	0.39	0.16
NS(=O)(=O)c1ccc(CCNC(=O)c2cccnc2)cc1	0.64	1.77
Cc1ccc(NC(=O)COc2ccc(N3CC(C(N)=O)CC3=O)cc2)c(C)c1 (stereo not drawn)	1.21	-1.07
COc1ccc(C)cc1-n1c(SCC(=O)Nc2cc(C)on2)nc2ccccc2c1=O	0.34	-0.56
N#Cc1ccccc1S(=O)(=O)N1CCN(C(=O)C2CCC2)CC1	1.1	-0.04
COc1ccc(NC(=O)Cc2cccc3ccccc23)cc1	0.43	-0.2
Cc1ccc(SC(C)C(=O)O/N=C(\N)c2ccncc2)cc1 (stereo not drawn)	0.04	4.42
COc1ccc(C(=O)NC(=S)N2CCCCC2)cc1[N+](=O)[O-]	0.52	0.09
O=C(Nc1ccc(O)cc1)c1cccc(Oc2ccc([N+](=O)[O-])cc2)c1	0.28	0.23
CC[C@]12CCCN3CCc4c(n(c5ccccc45)C(=O)C1)C32 (stereo partly drawn)	1	0.87
COc1ccc(/C=C2\SC(=S)N(CCCC(=O)NNC(=O)c3ccccc3O)C2=O)cc1	0.36	0.3
O=C(CN1CC(c2ccccc2)CC1=O)Nc1ccc2c(c1)OCO2 (stereo not drawn)	1.33	1.01
CCCCn1c(N)c(N(CCOC)C(=O)c2c(-c3ccccc3)noc2C)c(=O)[nH]c1=O	1.1	0.64
Cc1ccc(S(=O)(=O)N(C)C)cc1NC(=O)COC(=O)CNC(=O)C12CC3CC(CC(C3)C1)C2	0.4	-1.19
NNC(=O)c1cnn(Cc2ccccc2)c1N	1.52	-1.26
CCOC(=O)C1=C(C)NC(C)=C(C(=O)OCC)C1c1ccc(C)o1	0.14	-1.22
C=CCSC1=Nc2sccc2C2=NC(=O)CN12	0.02	-1.26
Cc1cccc2sc(NNC(=O)c3ccc(S(=O)(=O)N4CC(C)CC(C)C4)cc3)nc12 (stereo not drawn)	3.4	0.27
Cn1c(=O)c(C(=O)CN2CCN(S(=O)(=O)c3ccccc3)CC2)c(N)n(Cc2ccccc2)c1=O	0.74	1
CCn1nnnc1SCC(=O)NC1CCCC1	0.43	-0.69
C/C(=N\NC(=O)CN1CCOCC1)C(C)(C)C	0.18	-1.08
O=C(c1ccccc1F)N1CCN(Cc2ccc3c(c2)OCO3)CC1	0.65	-3.3
COc1cccc(C(=O)NCC(=O)N/N=C/c2c(C)[nH]c3ccccc23)c1	1.42	-1.14
COc1cc(-c2nnc(SCC(=O)N3CCOCC3)o2)cc(OC)c1OC	0.29	0.22
N=C1C(c2nc(-c3ccc(Cl)cc3)cs2)=C(O)CN1NC(=O)c1ccc(O)cc1	0.3	-0.01
O=C(CCc1nc2ccccc2c(=O)[nH]1)Nc1nnc(SCc2ccccc2)s1	0.64	-1.45
CCCc1cc(=O)[nH]c2nnc(SCC(=O)Nc3nnc(SCC)s3)n12	0.94	-0.42
O=C(CSc1ccc(-c2ccco2)nn1)NCc1ccc(F)cc1	0.76	0.15
Cc1ccc(-c2cc(C(=O)Nc3cc(C)ccc3C)[nH]n2)c(O)c1	1.06	0.03
CCc1cccc(C)c1NC(=O)c1cc(C)oc1C	0.6	0.05
COc1ccccc1-c1ccc(=O)n(CC(=O)NCC2CCCO2)n1 (stereo not drawn)	0.27	-0.91
Cc1ccc(S(=O)(=O)N(CCC(=O)O)Cc2ccc(Cl)cc2)cc1	1.57	-1.21
O=C(c1ccc(Cl)cc1Cl)C1(n2cncn2)Oc2ccccc2C1O (stereo not drawn)	0.56	-1.21
O=S(=O)(NCCCCCNS(=O)(=O)c1ccccc1)c1ccccc1	1.7	-1.2
Cc1ccc(-n2cccc2/C=C2\C(=N)N3N=C(c4ccco4)SC3=NC2=O)cc1	1.92	1.38
CCc1ccc(/C=C/c2c[nH]c3ccccc23)[n+](CC)c1	0.01	-0.62
CN(C)c1ccc(NC(=O)Cc2ccccc2)c2ccccc12	5.29*	-1.6*
CCn1c(=O)c(C(=O)NCc2ccc(OC)c(OC)c2)c(O)c2ccccc21	0.02	-0.55
CC(=O)c1cccc(NC(=O)NNC(=O)c2ccc(Cl)cc2Cl)c1	0.48	-2.12
Cc1nnc(SCc2ccc(F)cc2)s1	0.78	-2.42
CCOC(=O)N1CCC(N2C(=O)c3ccc(C(=O)NCCC(C)C)cc3C2=O)CC1	0.74	-0.98
O=S1(=O)CCC(N2CCOCC2)C1 (stereo not drawn)	1.51	-0.04
O=c1c2ccccc2nnn1CSc1nnc2sc3ccccc3n12	0.8	0.05
COCCN(Cc1ccccc1)C(=O)Cc1ccc(OC)c(S(=O)(=O)N2CCOCC2)c1	0.93	-0.49
CC1CC(C)CN(C(=O)CSCC(=O)O)C1 (stereo not drawn)	2.44	0.04
COc1ccc(Cl)cc1C(=O)NCc1ccc2c(c1)OCO2	0.33	-0.57
CCC(=O)NC(c1ccc(OC)cc1)c1cc(Cl)c2cccnc2c1O (stereo not drawn)	0.16	-0.06
COCCCNC(=O)c1ccccc1Sc1ccc(NC(C)=O)nc1	3.51	-0.1

Further structures.
SMILES	KCNQ2 pot	KCNQ2 pot baseline
CC(NC(=O)CCNS(=O)(=O)c1ccc2c(c1)oc(=O)n2C)c1ccccc1 (stereo not drawn)	0.84	-0.01
Cn1c(Sc2ccc(Br)cc2)c(C=O)c2ccccc21	0.08	-0.79
Cc1cc(C(C)(C)C)cc(S(=O)(=O)NCCc2ccncc2)c1C	1.36	0.02
CCCn1c(SCC(=O)N2CCCCC2)nnc1-c1ccco1	0.02	0.02
CC(=O)Nc1ccc(NC(=O)C(C)OC(=O)CNC(=O)c2ccc(-c3ccccc3)cc2)cc1 (stereo not drawn)	0.24	2.79
Nc1nc(Cl)cc(N2CCCC2)n1	0.29	-0.2
CC(=O)CC(CC(=O)NC1CCCCC1)c1ccccc1 (stereo not drawn)	0.11	-1.08
C/C(=N\O)C(=O)NCc1ccncc1	0.48	-1.38
Cc1ccccc1COc1ccc(/C=C(\C#N)C(N)=O)cc1	1.01	-0.37
Cc1nn(CC(=O)NCCc2ccco2)c(=O)c2nn(-c3ccccc3)c(C)c12	0.81	-2.46
CC(=O)CCC1CC(c2ccc(Cl)cc2)=NO1 (stereo not drawn)	0.36	0.96
COc1ccc(CNC(=O)C(=O)NCC2CCCN2S(=O)(=O)c2ccccc2)cc1 (stereo not drawn)	1.18	-0.04

A section from further up:
SMILES	KCNQ2 pot	KCNQ2 pot baseline
CC1CC(C)CN(C(=O)CSCC(=O)O)C1 (stereo not drawn)	2.44	0.04
COc1ccc(Cl)cc1C(=O)NCc1ccc2c(c1)OCO2	0.33	-0.57
CCC(=O)NC(c1ccc(OC)cc1)c1cc(Cl)c2cccnc2c1O (stereo not drawn)	0.16	-0.06
COCCCNC(=O)c1ccccc1Sc1ccc(NC(C)=O)nc1	3.51	-0.1
CC(NC(=O)CCNS(=O)(=O)c1ccc2c(c1)oc(=O)n2C)c1ccccc1 (stereo not drawn)	0.84	-0.01
Cn1c(Sc2ccc(Br)cc2)c(C=O)c2ccccc21	0.08	-0.79
Cc1cc(C(C)(C)C)cc(S(=O)(=O)NCCc2ccncc2)c1C	1.36	0.02
CCCn1c(SCC(=O)N2CCCCC2)nnc1-c1ccco1	0.02	0.02
CC(=O)Nc1ccc(NC(=O)C(C)OC(=O)CNC(=O)c2ccc(-c3ccccc3)cc2)cc1 (stereo not drawn)	0.24	2.79
Nc1nc(Cl)cc(N2CCCC2)n1	0.29	-0.2
CC(=O)CC(CC(=O)NC1CCCCC1)c1ccccc1 (stereo not drawn)	0.11	-1.08
C/C(=N\O)C(=O)NCc1ccncc1	0.48	-1.38
Cc1ccccc1COc1ccc(/C=C(\C#N)C(N)=O)cc1	1.01	-0.37
Cc1nn(CC(=O)NCCc2ccco2)c(=O)c2nn(-c3ccccc3)c(C)c12	0.81	-2.46

Additional entries:
SMILES	KCNQ2 pot	KCNQ2 pot baseline
COc1ccc(C(=O)Nn2cnc3ccccc3c2=O)cc1[N+](=O)[O-]	0.46	1.1
C=COCCn1c(-c2nonc2N)nc2ccccc21	0.33	0.7
CCC(NC(=O)Cc1c(C)c2cc3c(cc2oc1=O)OC(C)(C)CC3)C(=O)O (stereo not drawn)	1.53	4.25
O=c1c2cnn(-c3ccccc3)c2nc(-c2ccco2)n1-c1ccccc1	1.02	-0.2
O=C(CSS(=O)(=O)O)N1CCN(C(=O)c2ccoc2)CC1	0.03	2.39
O=C(Oc1ccccc1C(=O)N1CCOCC1)c1ccc(Br)cc1	0.01	-0.43
COc1ccc(OC)c2[nH]c(=O)c(CCNC(=O)c3ccc(S(=O)(=O)N(C)C)cc3)cc12	1.72	0.4
CCCCN1C(=O)C(=O)N(CC(=O)Nc2sc(C)c(CC)c2C(=O)OCC)C1=O	0.84	-0.22
c1ccc(-n2c(Cc3cn4ccsc4n3)nnc2N2CCOCC2)cc1	1.3	-0.58
O=C(Nc1cc(N2CCOCC2)ncn1)NC1(C(F)(F)F)Oc2ccccc2O1	1.08	-1.05

This is a subset; rates above refer to the full screens.
